# Source: PubChem
# HIV Env fusion: inhibitors of HIV-1 Env-driven cell-cell fusion, primary screen, HeLa-JRFL effector, CEM21 target cells, luciferase; inhibition, % at 12.3 µM; AID 651610, 2012; 1.1% of 360,000 active;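 active = mean replicate inhibition score of at least 50 and every replicate individually at or above 50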;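 note: 0% = plate neutral controls and 100% = maraviroc near 300 nM; one replicate is shown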
# Yeast UUG start: modulators of yeast start codon fidelity, primary screen, whole organism, S. cerevisiae, single point, plate reader; S. cerevisiae UUG-firefly luciferase reporter, luminescence/redox ratio; activity score, % at 18.7 µM; 0.13% of 350,000 active; AID 602363, 2012;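 active = replicate mean at a twofold rise or more, about +100% in these data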;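 note: firefly luciferase made from a UUG start codon reports start codon fidelity; reporter light over untreated wells divided by growth signal over untreated wells; some hits fall short of that in this replicate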
# Starred values were filed as active, the others as inactive; [ ] = remark or other dose. A portion of the library, so the mix of outcomes need not match the whole.
SMILES,HIV Env fusion,Yeast UUG start
C[C@H](CO)N1C[C@H](C)[C@H](CN(C)CC2CCCCC2)Oc2ccc(NC(=O)C3CC3)cc2CC1=O,-5.4[16.7 µM],-9.5
C[C@H]1CN([C@@H](C)CO)S(=O)(=O)c2ccc(C3=CCCC3)cc2O[C@H]1CN(C)C(=O)CC1CC1,-8.5[16.7 µM],-5.5
C[C@@H]1CN([C@H](C)CO)C(=O)c2cc(-c3cccc(F)c3)cnc2O[C@@H]1CN(C)C,11.2[16.7 µM],-2.9
C[C@@H]1CCCCO[C@@H](CN(C)S(C)(=O)=O)[C@H](C)CN([C@@H](C)CO)C(=O)c2cc(NS(=O)(=O)c3cccs3)ccc2O1,-3.8[16.7 µM],6.5
Cc1noc(C)c1NC(=O)Nc1ccc2c(c1)C(=O)N([C@@H](C)CO)C[C@H](C)[C@@H](CN(C)S(=O)(=O)c1cccs1)OCCCC[C@@H](C)O2,-37.0[16.7 µM],11.9
C[C@@H]1CN([C@H](C)CO)C(=O)c2cc(NC(=O)C3CC3)ccc2O[C@@H]1CN(C)CC1CCCCC1,6.1[16.7 µM],0.1
CC(C)C#Cc1ccc2c(c1)O[C@@H](CN(C)C(=O)c1ccccc1)[C@@H](C)CN([C@@H](C)CO)S2(=O)=O,-1.8[16.7 µM],9.5
C[C@@H]1CN([C@@H](C)CO)C(=O)c2cccc(NC(=O)Nc3ccc(F)cc3)c2O[C@@H]1CN(C)CC1CC1,-43.9[16.7 µM],2.7
C[C@@H]1CN([C@@H](C)CO)C(=O)c2cc(-c3cccc(F)c3)cnc2O[C@H]1CN(C)C(=O)C1CCCCC1,-1.6[16.7 µM],16.7
C[C@@H]1CN([C@H](C)CO)C(=O)c2cccc(NC(=O)C3CC3)c2O[C@H]1CN(C)Cc1ccncc1,0.5[16.7 µM],-12.5
C[C@H]1CN([C@@H](C)CO)S(=O)(=O)c2ccc(/C=C/c3ccccc3)cc2O[C@@H]1CN(C)C,13.3[16.7 µM],16.6
C[C@@H]1CN([C@H](C)CO)S(=O)(=O)c2ccc(-c3cccnc3)cc2O[C@H]1CN(C)C(=O)CC1CC1,-4.2[16.7 µM],-0.2
C[C@@H]1CN([C@H](C)CO)C(=O)Cc2cc(NC(=O)Nc3ccccc3)ccc2O[C@@H]1CN(C)C(=O)Nc1cccc2ccccc12,-3.2[16.7 µM],-0.8
Cc1ccc(-c2cnc3c(c2)C(=O)N([C@H](C)CO)C[C@@H](C)[C@@H](CN(C)C(=O)c2cccnc2)O3)cc1,-6.2[16.7 µM],-15.1
O=C(N[C@@H]1CC[C@H](CC(=O)N2CCc3ccccc3C2)O[C@H]1CO)C1CC1,4.1[16.7 µM],-10.1
COc1ccccc1NC(=O)N(C)C[C@@H]1Oc2ncc(C#CCN(C)C)cc2C(=O)N([C@@H](C)CO)C[C@H]1C,-7.7[16.7 µM],0.7
C[C@@H]1CN([C@@H](C)CO)C(=O)c2cccc(NC(=O)c3ccc(-c4nccs4)cc3)c2O[C@@H]1CN(C)S(=O)(=O)c1cccs1,8.2[16.7 µM],-1.4
CC(C)NC(=O)N[C@H]1CC[C@H](CCNC(=O)C2CCCC2)O[C@@H]1CO,4.4[16.7 µM],-2.5
O=C(Cc1ccccn1)NCC[C@@H]1CC[C@H](NS(=O)(=O)c2ccc(Cl)cc2)[C@H](CO)O1,13.1[16.7 µM],103.5*
C[C@@H]1CN([C@H](C)CO)C(=O)c2cc(NS(=O)(=O)c3ccc(F)cc3)ccc2O[C@@H](C)CCCCO[C@H]1CN(C)Cc1ccc(C(F)(F)F)cc1,7.4[16.7 µM],17.1
C[C@H](CO)N1C[C@H](C)[C@@H](CN(C)C)Oc2ccc(NS(=O)(=O)c3ccc(F)cc3)cc2CC1=O,10.9[16.7 µM],-11.0
CO[C@H]1CN(C)C(=O)c2cc(NC(=O)Nc3cccc(F)c3)ccc2OC[C@@H](C)N(C)C[C@@H]1C,4.8[16.7 µM],-7.7
C[C@@H]1CN([C@@H](C)CO)C(=O)c2cc(NS(=O)(=O)c3cn(C)cn3)ccc2O[C@@H](C)CCCCO[C@H]1CN(C)C(=O)CCCN(C)C,-6.7[16.7 µM],9.0
O=C(C[C@@H]1C=C[C@@H](NS(=O)(=O)c2cccc(F)c2)[C@@H](CO)O1)NCc1ccc2c(c1)OCO2,-4.9[16.7 µM],-5.2
C[C@@H](NC(=O)C[C@@H]1C[C@@H]2c3cc(NC(=O)CN(C)C)ccc3O[C@@H]2[C@@H](CO)O1)c1ccccc1,2.1[16.7 µM],7.3

# More compounds.
SMILES,HIV Env fusion,Yeast UUG start
C[C@@H]1CCCCO[C@H](CN(C)C(=O)Nc2ccc(C(F)(F)F)cc2)[C@H](C)CN([C@H](C)CO)C(=O)c2cc(NC(=O)Cc3ccccc3)ccc2O1,26.2[16.7 µM],-1.8
COC(=O)[C@@]1(Cc2ccccc2)N=C(c2ccc(OCCCO)cc2)O[C@H]1c1ccccc1CN=[N+]=[N-],39.2[16.7 µM],10.7
COc1ccccc1S(=O)(=O)N[C@H]1CC[C@@H](CCNC(=O)C2CCCCC2)O[C@@H]1CO,-11.5[16.7 µM],6.6
COc1ccc(S(=O)(=O)Nc2cccc3c2O[C@@H](CN(C)S(=O)(=O)c2cn(C)cn2)[C@@H](C)CN([C@@H](C)CO)C3=O)cc1,-3.8[16.7 µM],-4.1
CCC(=O)Nc1ccc2c(c1)OC[C@@H](C)N(C(=O)c1cnccn1)C[C@H](C)[C@H](OC)CN(C)C2=O,-1.3[16.7 µM],-3.3
CNC(=O)C[C@H]1CC[C@H]2[C@@H](COc3ccc(NC(=O)Nc4ccccc4)cc3C(=O)N2C)O1,-22.3[16.7 µM],8.8
C[C@@H]1CCCCO[C@H](CN(C)C(=O)Nc2ccc(F)cc2)[C@@H](C)CN([C@H](C)CO)C(=O)c2cc(NC(=O)Nc3ccc(F)cc3)ccc2O1,-31.0[16.7 µM],-13.7
Cc1ccc(S(=O)(=O)Nc2ccc3c(c2)C(=O)N([C@@H](C)CO)C[C@@H](C)[C@@H](CN(C)S(=O)(=O)c2ccc(Cl)cc2)OCCCC[C@H](C)O3)cc1,-8.2[16.7 µM],2.7
CNC[C@@H]1Oc2ccc(NC(=O)Cc3ccccc3)cc2CC(=O)N([C@H](C)CO)C[C@H]1C,-5.1[16.7 µM],7.6
C[C@H]1CN([C@@H](C)CO)C(=O)c2cccc(NC(=O)c3cnccn3)c2O[C@H]1CN(C)S(=O)(=O)c1cccs1,-18.5[16.7 µM],-7.6
CC(C)NC(=O)N(C)C[C@@H]1Oc2ncc(C#CC3(O)CCCC3)cc2C(=O)N([C@@H](C)CO)C[C@@H]1C,12.2[16.7 µM],11.0
C[C@@H]1CCCCO[C@@H](CN(C)C(=O)C2CCCCC2)[C@@H](C)CN([C@H](C)CO)C(=O)c2cc(NS(C)(=O)=O)ccc2O1,-17.5[16.7 µM],27.1
COc1ccc(NC(=O)N(C)C[C@@H]2OCCCC[C@@H](C)Oc3ccc(NS(=O)(=O)c4c(C)noc4C)cc3C(=O)N([C@H](C)CO)C[C@H]2C)cc1,-159.9[16.7 µM],8.6
CC(=O)N(C)C[C@H]1Oc2ncc(/C=C/c3ccccc3)cc2C(=O)N([C@H](C)CO)C[C@H]1C,1.0[16.7 µM],-4.1
C[C@@H]1CN([C@@H](C)CO)C(=O)c2cccc(NC(=O)NC3CCCCC3)c2O[C@@H]1CN(C)CC1CCCCC1,35.9[16.7 µM],-1.9
CC(=O)N(C)C[C@@H]1Oc2cc(C#CC(C)(C)O)ccc2S(=O)(=O)N([C@H](C)CO)C[C@H]1C,2.2[16.7 µM],5.0
CCCN(C)C[C@H]1Oc2cc(C#CCC3CCCC3)ccc2S(=O)(=O)N([C@@H](C)CO)C[C@H]1C,8.0[16.7 µM],59.8
CCNC(=O)C[C@H]1CC[C@@H]2[C@@H](COc3ccc(NC(=O)Cc4cccs4)cc3C(=O)N2C)O1,65.0*[16.7 µM],-19.6
COc1ccc(S(=O)(=O)N[C@H]2C=C[C@@H](CC(=O)N3CCc4ccccc4C3)O[C@@H]2CO)cc1,11.1[16.7 µM],-0.9
C[C@@H]1CN([C@@H](C)CO)C(=O)c2cc(C#CC3(O)CCCC3)cnc2O[C@H]1CN(C)C(=O)Cc1ccccc1,2.0[16.7 µM],9.7
C[C@H](CO)N1C[C@H](C)[C@H](CN(C)C(=O)NC2CCCCC2)Oc2ccc(NC(=O)C3CC3)cc2CC1=O,-6.4[16.7 µM],8.4
C[C@H](CO)N1C[C@H](C)[C@@H](CN(C)C(=O)Nc2ccccc2)OCCCC[C@H](C)Oc2ccc(NC(=O)Nc3ccc(F)cc3)cc2C1=O,-2.6[16.7 µM],-7.5
C[C@@H]1CN([C@H](C)CO)C(=O)c2cc(NC(=O)Nc3cccc4ccccc34)ccc2O[C@@H](C)CCCCO[C@@H]1CN(C)Cc1ccccc1,41.7[16.7 µM],5.4
C[C@@H]1CN([C@H](C)CO)S(=O)(=O)c2ccc(-c3ccncc3)cc2O[C@@H]1CN(C)Cc1cccnc1,-10.2[16.7 µM],-5.3
C[C@H]1CCCCO[C@H](CN(C)C(=O)CCCN(C)C)[C@@H](C)CN([C@@H](C)CO)C(=O)c2cc(NC(=O)Nc3ccccc3)ccc2O1,-13.5[16.7 µM],13.5

# Additional entries:
SMILES,HIV Env fusion,Yeast UUG start
CC(C)NC(=O)Nc1ccc2c(c1)C(=O)N([C@@H](C)CO)C[C@H](C)[C@H](CN(C)S(=O)(=O)c1cn(C)cn1)O2,-9.4[16.7 µM],-12.6
C[C@@H]1CN([C@@H](C)CO)C(=O)c2cc(NS(=O)(=O)c3ccc(Cl)cc3)ccc2O[C@@H](C)CCCCO[C@@H]1CN(C)C(=O)Cc1ccccc1,7.9[16.7 µM],-4.4
C[C@H]1CCCCO[C@H](CN(C)C(=O)Nc2ccc(F)cc2)[C@@H](C)CN([C@@H](C)CO)C(=O)c2cc(NC(=O)Nc3cccc4ccccc34)ccc2O1,32.5[16.7 µM],-14.6
C[C@H]1CN([C@@H](C)CO)C(=O)c2cc(C3=CCCC3)cnc2O[C@H]1CN(C)C(=O)c1cccnc1,-18.5[16.7 µM],-17.6
NCc1csc(Nc2nncc3ccccc23)n1,-174.9,-10.4
C[C@H]1CCCCO[C@@H](CN(C)C(=O)c2ccncc2)[C@@H](C)CN([C@@H](C)CO)C(=O)c2cc(NC(=O)CCC(F)(F)F)ccc2O1,-14.9[16.7 µM],-5.9
CCCC#Cc1cnc2c(c1)C(=O)N([C@@H](C)CO)C[C@@H](C)[C@@H](CN(C)S(=O)(=O)c1ccccc1)O2,22.1[16.7 µM],7.2
CC(C)C#Cc1cnc2c(c1)C(=O)N([C@H](C)CO)C[C@H](C)[C@H](CN(C)S(=O)(=O)c1cn(C)cn1)O2,-19.3[16.7 µM],12.5
C[C@H]1CN([C@@H](C)CO)C(=O)c2cc(NS(=O)(=O)c3ccc(F)cc3)ccc2O[C@@H]1CN(C)CC1CCCCC1,-3.3[16.7 µM],-3.3
C[C@H]1CCCCO[C@H](CN(C)C)[C@@H](C)CN([C@@H](C)CO)C(=O)c2cc(NC(=O)Nc3ccc(F)cc3)ccc2O1,20.5[16.7 µM],14.9
COc1ccc(C#Cc2ccc3c(c2)O[C@H](CN(C)C(=O)NC2CCCCC2)[C@H](C)CN([C@H](C)CO)S3(=O)=O)cc1,30.8[16.7 µM],-11.9
COc1ccc(S(=O)(=O)N(C)C[C@H]2Oc3ccc(NC(=O)CCN4CCOCC4)cc3CC(=O)N([C@H](C)CO)C[C@H]2C)cc1,-6.3[16.7 µM],-6.1
COc1ccccc1-c1cnc2c(c1)C(=O)N([C@H](C)CO)C[C@H](C)[C@@H](CN(C)C(=O)c1ccncc1)O2,0.0[16.7 µM],-1.7
CC(C)NC(=O)Nc1ccc2c(c1)C(=O)N([C@@H](C)CO)C[C@@H](C)[C@@H](CN(C)S(C)(=O)=O)OCCCC[C@@H](C)O2,17.9[16.7 µM],12.3
CCCN(C)C[C@@H]1OCCCC[C@H](C)Oc2ccc(NS(C)(=O)=O)cc2C(=O)N([C@@H](C)CO)C[C@H]1C,10.2[16.7 µM],15.9
C/C=C/c1ccc2c(c1)O[C@@H](CN(C)C(=O)c1ccccn1)[C@H](C)CN([C@H](C)CO)S2(=O)=O,5.3[16.7 µM],3.9
C[C@H]1CN([C@@H](C)CO)S(=O)(=O)c2ccc(-c3ccncc3)cc2O[C@@H]1CN(C)C,0.0[16.7 µM],-12.2
C[C@@H]1CCCCO[C@H](CN(C)C(=O)Nc2ccccc2)[C@H](C)CN([C@@H](C)CO)C(=O)c2cc(NC(=O)Nc3ccc(F)cc3)ccc2O1,-40.2[16.7 µM],-16.2
CNC[C@@H]1Oc2cc(C#CC3CCCC3)ccc2S(=O)(=O)N([C@@H](C)CO)C[C@H]1C,19.4[16.7 µM],5.3
COc1ccc(S(=O)(=O)Nc2ccc3c(c2)C(=O)N([C@@H](C)CO)C[C@@H](C)[C@@H](CN(C)Cc2ccc(C(=O)O)cc2)OCCCC[C@@H](C)O3)cc1,16.0[16.7 µM],23.0

# Of the compounds above, these contain a thiophene ring, fused or not.
SMILES,HIV Env fusion,Yeast UUG start
C[C@@H]1CCCCO[C@@H](CN(C)S(C)(=O)=O)[C@H](C)CN([C@@H](C)CO)C(=O)c2cc(NS(=O)(=O)c3cccs3)ccc2O1,-3.8[16.7 µM],6.5
Cc1noc(C)c1NC(=O)Nc1ccc2c(c1)C(=O)N([C@@H](C)CO)C[C@H](C)[C@@H](CN(C)S(=O)(=O)c1cccs1)OCCCC[C@@H](C)O2,-37.0[16.7 µM],11.9
C[C@@H]1CN([C@@H](C)CO)C(=O)c2cccc(NC(=O)c3ccc(-c4nccs4)cc3)c2O[C@@H]1CN(C)S(=O)(=O)c1cccs1,8.2[16.7 µM],-1.4
C[C@H]1CN([C@@H](C)CO)C(=O)c2cccc(NC(=O)c3cnccn3)c2O[C@H]1CN(C)S(=O)(=O)c1cccs1,-18.5[16.7 µM],-7.6
CCNC(=O)C[C@H]1CC[C@@H]2[C@@H](COc3ccc(NC(=O)Cc4cccs4)cc3C(=O)N2C)O1,65.0*[16.7 µM],-19.6
